Source: PubChem (several laboratories)
Mtb growth: M. tuberculosis H37Rv growth inhibitors, H37Rv strain (AID 1626). M. tuberculosis H37Rv growth inhibition; higher % means a stronger effect. one-dose inhibition, % at 10 µM; IC50 in µM for titrated hits. actives 0.95% (n = 220,000);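 active = confirmed in a dose series; inconclusive = inhibition above 80% but not taken into the dose series; inactive = below 80% or under 30% at every dose of the series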;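 also: bacteria incubated seven days before Alamar blue readout; 0% = bacteria only wells and 100% = bacteria with antibiotic wells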
YopH PTP inh: YopH tyrosine phosphatase inhibitors, primary screen, biochemical, fluorescence Ex485/Em525; YopH tyrosine phosphatase [Yersinia enterocolitica]; inhibition, %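 (about 10 µM by stock and volumes)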; actives 0.16% (n = 140,000);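 active = inhibition of 50% or more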;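 also: controls were vehicle for no effect and minimum signal wells for full effect; inactives centre near -20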
Mtb bLac sens: beta-lactam sensitization of Mtb H37Rv, H37Rv | M. tuberculosis H37Rv growth with meropenem, percent inhibition; hits of this screen are not shown here | inhibition, % at 25 µM | actives 0.27% (n = 330,000);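 active = about 74% or more and at least 40 points above the plate without the antibiotic, then above 30% in a dose series; inconclusive = first-round hits that could not be retested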;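 also: growth measured after seven days incubation then overnight dye step; 0% = bacteria only wells and 100% = bacteria with antibiotic; twin plates without the antibiotic show which effects depend on it; some results filed as inactive read as strong as hits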
Arbovirus anti: antivirals against arbovirus infection, primary screen, cell-based, full library, 10K replicate subset; arbovirus infection cell-based antiviral screen; AID 1251, 2008; inhibition, % at 10 µM; actives 0.37% (n = 200,000);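 active = inhibition from about 30%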;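 also: bluetongue infection of BSR cells; cell survival read as ATP light after 72 h; 0% = infected wells without compound and 100% = uninfected wells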
RecA splice inh: Mtb RecA intein splicing inhibitors, primary screen, biochemical, fluorescence, HTS | Protein RecA (Mycobacterium tuberculosis (strain ATCC 25618 / H37Rv)), P9WHJ3 | cell-free RecA intein splicing | actives 0.75% (n = 290,000) | inhibition, %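 (about 9 µM by stock and volumes)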 | AID 2221, 2009; in the data active = inhibition above about 30%; inconclusive = no clear call, values can overlap the other calls;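 also: 0% = vehicle wells and 100% = reference inhibitor control wells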
Target sequence (P9WHJ3 whole entry, looked up, canonical isoform): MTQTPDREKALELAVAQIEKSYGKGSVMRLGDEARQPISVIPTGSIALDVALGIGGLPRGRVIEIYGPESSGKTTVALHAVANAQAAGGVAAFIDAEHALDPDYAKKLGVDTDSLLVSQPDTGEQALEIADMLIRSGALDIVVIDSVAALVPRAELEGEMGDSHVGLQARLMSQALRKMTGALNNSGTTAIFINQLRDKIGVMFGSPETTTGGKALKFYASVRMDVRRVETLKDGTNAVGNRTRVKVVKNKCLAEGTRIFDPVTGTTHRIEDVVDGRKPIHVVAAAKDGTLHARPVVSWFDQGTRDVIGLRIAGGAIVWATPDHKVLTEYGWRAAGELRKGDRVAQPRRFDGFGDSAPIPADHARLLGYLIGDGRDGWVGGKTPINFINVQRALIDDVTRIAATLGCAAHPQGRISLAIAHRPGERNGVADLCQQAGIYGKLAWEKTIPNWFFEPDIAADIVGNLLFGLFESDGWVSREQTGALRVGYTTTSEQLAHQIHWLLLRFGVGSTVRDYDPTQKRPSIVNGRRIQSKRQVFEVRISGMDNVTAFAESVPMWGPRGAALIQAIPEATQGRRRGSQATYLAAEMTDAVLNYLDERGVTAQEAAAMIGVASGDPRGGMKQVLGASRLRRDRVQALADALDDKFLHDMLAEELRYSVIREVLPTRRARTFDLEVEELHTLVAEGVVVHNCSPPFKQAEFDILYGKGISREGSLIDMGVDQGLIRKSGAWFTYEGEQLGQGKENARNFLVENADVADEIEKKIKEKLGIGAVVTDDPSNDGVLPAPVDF
Active calls of the source: *; ? = inconclusive; . = not tested or not shown.

A first look (3 entries):
SMILES	Mtb growth	YopH PTP inh	Mtb bLac sens	Arbovirus anti	RecA splice inh
Cc1ccc(S(=O)(=O)N2CCCCC2)cc1NC(=O)COc1ccccc1F	-8%	.	0	-1	2.2
CC1C(=O)N2CCCc3cc(S(=O)(=O)NCc4ccc(F)cc4)cc1c32 (stereo not given)	.	.	-6	.	-1.3
COc1ccc(/C=C2/SC(=S)N(NS(=O)(=O)c3ccccc3)C2=O)cc1	.	.	8	.	2.4

The list itself, from the start:
SMILES	Mtb growth	YopH PTP inh	Mtb bLac sens	Arbovirus anti	RecA splice inh
Cc1ccc(S(=O)(=O)N2CCCCC2)cc1NC(=O)COc1ccccc1F	-8%	.	0	-1	2.2
CC1C(=O)N2CCCc3cc(S(=O)(=O)NCc4ccc(F)cc4)cc1c32 (stereo not given)	.	.	-6	.	-1.3
COc1ccc(/C=C2/SC(=S)N(NS(=O)(=O)c3ccccc3)C2=O)cc1	.	.	8	.	2.4
N#C/C(=C\c1cccs1)C(=O)N1CCOCC1	.	.	-6	.	-0.9
Cc1ccccc1OCCCC(=O)NC1CCCCC1	.	.	-5	.	0.5
O=C1C2C3C=CC(C3)C2C(=O)N1CCCCCCN1C(=O)C2C3C=CC(C3)C2C1=O (stereo not given)	-1%	.	-15	4	0.2
COc1ccc(CCNC(=O)C2CCN(S(=O)(=O)N3CCC(C)CC3)CC2)cc1OC	.	.	4	.	-6.6
CCCCn1c(N)c(N(CC)C(=O)c2cc(C)cc(C)c2)c(=O)[nH]c1=O	.	.	-3	.	1.1
O=S(=O)(NCc1ccccc1Cl)c1ccc(-n2cnnn2)cc1	.	.	6	.	2.1
CC(C)CNCC(=O)N1c2ccccc2Sc2ccccc21	5%	-11	-8	5	2.9
O=C(CN(CC1CCCO1)C(=O)CNS(=O)(=O)c1ccc(Cl)cc1)NCC1CCCO1 (stereo not given)	-10%	-1	0	3	2.0
CC1=CC(=C(C#N)C#N)C=C(C)N1CCN1CCN(C(=O)Nc2ccc(Cl)c(Cl)c2)CC1	-6%	-5	6	10	0.8
Cc1cc(C(=O)CSc2nc(N)cc(=O)[nH]2)c(C)n1-c1cccc(F)c1	3%	-16	1	2	0.4
Cc1cc(NCCN2CCOCC2)n2nc(C)c(-c3ccccc3)c2n1	2%	3	-8	-16	18
COc1cc(C2NC(=O)NC(C)=C2C(=O)Nc2cccc(C)c2C)cc(OC)c1OC (stereo not given)	-3%	10	-4	-5	1.7
O=C(Nc1ccc(Cl)cc1)C1CCCN1C(=O)NCc1ccccc1 (stereo not given)	.	.	-5	.	-0.7
O=C(O)c1cccc(Cn2c(Cl)c(/C=N/Nc3ccccc3)sc2=O)c1	?	.	68	-2	30*
COc1ccc(C2=NCC(CSc3nccc(=O)[nH]3)S2)cc1 (stereo not given)	-6%	-28	-6	7	2.2
Cn1c(SCc2nc(-c3ccc(Cl)cc3)no2)nnc1-c1ccccc1	-4%	-38	-10	22	4.8
Cc1ccccc1OCCCCN1CCCCC1	.	.	-8	.	0.9
COc1ccccc1/C=C/C(=O)NCC(=O)N/N=C/c1ccc(C(=O)O)cc1	.	.	1	.	-2.9
CC1CCCN(CC(=O)Nc2ccc(S(=O)(=O)NC3CCCCC3)cc2)C1 (stereo not given)	4%	-42	-1	-4	2.1
COc1ccccc1N(C)S(=O)(=O)c1ccc(Cl)c(C(=O)N2CCC(C(N)=O)CC2)c1	-7%	.	-11	24	3.8
c1ccc(CCNc2ncnc3sccc23)nc1	1%	.	1	5	0.6
O=C(Nc1c(Cl)cc(Cl)cc1C(=O)NCCN1CCOCC1)c1ccc(Cl)cc1Cl	-4%	-32	-7	-1	0.5
Cn1c(/C(C#N)=C(\O)COc2ccc3ccccc3c2)nc2ccccc21	-3%	-34	13	-16	7.6
Cc1cc(C)cc(NC(=S)Nc2cccc3cnccc23)c1	?	.	.	11	.
O=C(c1ccco1)N1CCN(S(=O)(=O)c2ccc(S(=O)(=O)NC3CCCC3)cc2)CC1	-1%	-37	2	-5	-2.3
O=C(Cn1nnc(-c2ccccc2NC(=O)c2ccccc2)n1)Nc1ccc2c(c1)OCCO2	-1%	-36	0	-3	-3.1
Cc1ccc(S(=O)(=O)/N=C2/NC(=O)/C(=C/c3ccncc3)S2)cc1	-4%	-36	3	-1	-0.3
COc1ccccc1-n1c(-c2ccccc2Cl)nc2ccccc2c1=O	.	.	-1	.	3.6
CC(C(=O)Nc1ccc2c(c1)OCCO2)n1nnc(-c2ccccc2)n1 (stereo not given)	-1%	.	-1	3	-2.3
O=C(c1ccc2c(c1)OCO2)C1CCCN(Cc2ccc(OC(F)F)cc2)C1 (stereo not given)	.	.	9	.	5.0
CSc1ccc(/C=N/NC(=O)c2sccc2C)cc1	2%	-17	2	-9	-2.8
CCCn1c(-c2ccc[nH]c2=O)nc2ccccc21	3%	.	-5	2	-0.9
CCOc1ccc(OCC)c(S(=O)(=O)N2CCOCC2)c1	-5%	.	-5	-1	0.8
Cc1ccc(NC(=O)c2cc3cc(OC(F)(F)F)ccc3[nH]2)cc1	-5%	.	-9	.	-0.8
N#CC1=C2Sc3ccccc3N2CCCC1=O	-6%	4	1	9	0.2
O=C(Cc1nc2ccccc2[nH]c1=O)c1ccc(Cl)cc1	.	.	-6	.	-8.8
NC(CSCc1ccccc1Cl)C(=O)O (stereo not given)	12%	.	10	20	-3.2
COc1ccccc1NC(=O)c1nnn(Cc2ccccc2)c1NC(C)=O	-5%	-43	3	2	6.3
Cc1ccc(SCCC(=O)N2CCOCC2)cc1	3%	-22	3	3	-0.1
Cc1noc(/C=C/c2ccco2)c1S(=O)(=O)N1CCC(C(=O)N2CCc3ccccc32)CC1	7%	-26	-7	10	2.1
Cc1ccccc1NC(=O)CSc1nc2cc3c(cc2cc1C)CCC3	-7%	-26	2	-18	2.5
N#Cc1cc(C#N)c(N2CCN(c3cccc(Cl)n3)CC2)nc1N	2%	-8	72	4	6.1
COc1ccc(C2=NN(CN3C(=O)C(=O)c4ccccc43)C(c3ccc(OC)cc3)C2)cc1 (stereo not given)	7%	-15	52	15	.
Cc1cccc(NC(=O)COc2coc(CN3CCN(c4ccccc4)CC3)cc2=O)c1	.	.	39	.	1.1
CC1N=C(c2ccccc2)c2cc(Br)ccc2NC1=O (stereo not given)	.	.	-11	.	3.6
N/C(=N\N=C\c1ccnc2ccccc12)SC1CC(=O)N(c2ccc(Br)cc2)C1=O (stereo not given)	.	-23	19	-8	-1.1
CCOc1ccc2ccccc2c1/C=N/NC(=O)c1ccncc1	.	.	98	.	-3.6
COc1ccccc1N1CCN(C2CCN(C(=O)COc3cccc(C)c3)CC2)CC1	-12%	-28	8	12	1.9
COCCn1c(N2CCCC2)nc2c1c(=O)[nH]c(=O)n2C	.	.	-2	.	-2.2
CCn1c(CNC(=O)COc2ccc(C(C)C)cc2)nnc1SCC(=O)Nc1ccc(F)cc1	-4%	-13	3	1	2.6
CCCc1nc(SCC(=O)N2CCc3ccccc3C2)c2ccccc2n1	-4%	-27	4	-3	32*
CCOC(=O)C1=NNC(C(=O)c2ccccc2)C1c1ccc(OC)cc1 (stereo not given)	-1%	-17	-4	.	0.4
CCOCCOC(=O)COc1ccc2c(=O)c(Oc3ccc(OC)cc3)coc2c1	.	.	97	.	-1.0
Cc1ccc(NC(=O)NC(=O)c2cnccc2C(F)(F)F)c(C)c1	-5%	.	-5	.	0.7
COCCN(CCOC)S(=O)(=O)c1ccc(C(=O)Nc2nc3c(s2)CCc2ccccc2-3)cc1	7%	-35	1	-11	-15
CN(CC12CC3CC(CC(C3)C1)C2)C(=O)c1ccco1	.	.	3	.	-3.0
CC1CCCN(C(=O)C2(NC(=O)Nc3cccc(F)c3)CCCCC2)C1 (stereo not given)	-6%	.	3	11	-0.5
(further entries)
SMILES	Mtb growth	YopH PTP inh	Mtb bLac sens	Arbovirus anti	RecA splice inh
CN(C)C1(CNC(=O)c2cc(S(=O)(=O)N3CCOCC3)c(Cl)cc2Cl)CCCCC1	.	.	-8	.	1.3
CCn1c2ccccc2c2cc(NC(=O)COC(=O)Cc3cn4ccsc4n3)ccc21	-3%	4	.	-5	1.6
O=C(COC(=O)Cc1c[nH]c2ccccc12)Nc1cccc2ccccc12	9%	-31	1	3	1.4
O=C(O)Cc1nc(-c2cccnc2)sc1-c1ccc(Br)cc1	-13%	.	1	.	-0.7
O=C(CCc1ccccc1O)N/N=C/c1ccc(Sc2cccc3cccnc23)o1	-5%	-15	9	-28	0.2
CC(=O)Nc1sc(N/N=C\c2ccccc2F)nc1-c1cccs1	1%	-16	4	-22	-1.1
c1csc(-c2cn3ccc4ccccc4c3n2)c1	7%	.	82	-10	-1.7
Cc1cccc(C(=O)N[C@H](C(=O)Nc2ccc(C)c(S(=O)(=O)N(C)C)c2)C(C)C)c1	1%	.	8	3	-2.0
COc1ccc(N2CCN(C(=O)CSc3nnc(-c4cccnc4)n3-c3ccc(F)cc3)CC2)cc1	-12%	-2	32	-5	-1.7
CC(C)C(=O)Nc1ccc2oc(=O)ccc2c1	-3%	.	-6	5	-1.6
CSc1ccccc1C(=O)Nc1ccc(C)cc1C	34%	.	99	4	-3.0
O=C1CC(N2CCOCC2)C(=O)N1c1ccc2c(c1)OCO2 (stereo not given)	-1%	-28	3	3	-2.6
O=C1CN(c2nc(-c3cccnc3)nc3sc4c(c23)CCCC4)CCN1	6%	.	9	-11	-2.4
O=C(CSc1cc(Cl)ccc1Cl)NC1CCCc2ccccc21 (stereo not given)	-1%	-38	-1	4	1.0
CN1CCN(CCCNC(=O)c2ccc3c(c2)N(Cc2ccc(F)cc2)CCS3)CC1	.	.	-6	.	-5.6
O=C(c1ccco1)N1CCN(C(=S)Nc2ccc(Br)cc2Cl)CC1	.	.	1	.	0.6
Cc1ccc(CN=C(Nc2ccccc2)NC2CCCCC2)cc1	11%	.	2	4	5.5
N#Cc1cccc(C(=O)OCC(=O)c2ccc3c(c2)NC(=O)CO3)c1	.	.	0	.	0.4
CC(Sc1nc2sc3c(c2c(=O)n1-c1ccccc1)CCCC3)C(=O)O (stereo not given)	-14%	.	-6	.	4.0
Cc1cc(C)n(C(C)CNS(=O)(=O)c2ccc(C)c(C)c2)n1 (stereo not given)	.	.	-3	.	-0.3
Cc1ccc(C)c(N2CCN(C(=O)CCn3c(=S)[nH]c4cc5c(cc4c3=O)OCO5)CC2)c1	17%	7	5	13	-0.4
O=C(NC1CCCc2c1cnn2-c1ccc(F)cc1F)c1csnn1 (stereo not given)	.	.	1	.	1.5
CCOc1ccc(-c2csc(NC(=O)c3ccco3)n2)cc1	.	.	7	.	1.2
CCOC(=O)CC1NCCc2c1[nH]c1ccc(OC)cc21 (stereo not given)	.	.	13	.	0.1
CCOc1cc(/C=N/NC(=O)c2ccc(-c3csc(Nc4ccc(C)cc4)n3)cc2)ccc1OCC(=O)O	4%	.	.	-13	.
COc1ccc(N(C(=O)c2ccncc2)S(=O)(=O)c2ccc3c4c(cccc24)C(=O)N3C)cc1	6%	.	-6	3	-27
O=[N+]([O-])c1cc(Cl)cc2c1nc(NCCO)c1ccccc12	-8%	.	6	.	0.0
COc1ccc(-c2n[nH]c(=S)n2-c2cc(OC)ccc2OC)cc1	-1%	.	-1	.	-2.9
CC(=O)N1CCOc2cc(S(=O)(=O)NCc3ccc(F)cc3)c(C)cc21	.	.	?	.	0.5
CC(C)C(=O)Nc1ccc(C(=O)NNC(=S)NC(=O)c2ccccc2[N+](=O)[O-])cc1	5%	.	-3	0	0.9
O=C(N/N=C/c1ccccn1)c1cc(-c2ccc(Cl)s2)[nH]n1	.	.	12	.	3.3
O=C(COc1cc(Cl)c(Cl)cc1Cl)Nc1cccc(O)c1	0%	.	6	.	1.0
O=[N+]([O-])c1ccc(C[n+]2ccc(Cc3ccccc3)cc2)cc1	-1%	.	3	0	-4.7
C/C(=C\c1ccccc1)CN1CCC(C(=O)N2CCCC(C)C2)CC1 (stereo not given)	-3%	.	3	9	0.5
CCOc1ccc(-c2nc(CSCC(=O)NC3CCCc4ccccc43)c(C)o2)cc1 (stereo not given)	7%	4	87	7	0.3
Cc1nc2ccc(Cl)cc2c(=O)n1-c1ccccc1Cl	.	.	-6	.	-4.2

Reformatted: 3 of the compounds above.
O=C(COC(=O)Cc1c[nH]c2ccccc12)Nc1cccc2ccccc12
  Mtb growth = 9%
  YopH PTP inh = -31
  Mtb bLac sens = 1
  Arbovirus anti = 3
  RecA splice inh = 1.4
O=C(O)Cc1nc(-c2cccnc2)sc1-c1ccc(Br)cc1
  Mtb growth = -13%
  YopH PTP inh = .
  Mtb bLac sens = 1
  Arbovirus anti = .
  RecA splice inh = -0.7
O=C(CCc1ccccc1O)N/N=C/c1ccc(Sc2cccc3cccnc23)o1
  Mtb growth = -5%
  YopH PTP inh = -15
  Mtb bLac sens = 9
  Arbovirus anti = -28
  RecA splice inh = 0.2

An excerpt; count on the stated rates, not on these rows.
